Screening data deposited in PubChem BioAssay by The Scripps Research Institute Molecular Screening Center.
OX1R antag-1: OX1R (HCRTR1) antagonists, primary screen, fluorescence, CHO/OX1R cells, Fluo-8 calcium, orexin A; Orexin/Hypocretin receptor type 1 (Homo sapiens), O43613; Fluo-8 calcium fluorescence; inhibition, % at 5 µM; 330,000 tested, 0.43% active; AID 434989, 2010;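 active means inhibition above its plate's threshold, mean inhibition of all tested compounds on the plate plus 3 SD, cut at about 37% in these data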;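 further: 0% = orexin A challenge wells and 100% = SB-334867-A antagonist wells; not every result past the cut was called active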
Target sequence (O43613 whole entry, looked up): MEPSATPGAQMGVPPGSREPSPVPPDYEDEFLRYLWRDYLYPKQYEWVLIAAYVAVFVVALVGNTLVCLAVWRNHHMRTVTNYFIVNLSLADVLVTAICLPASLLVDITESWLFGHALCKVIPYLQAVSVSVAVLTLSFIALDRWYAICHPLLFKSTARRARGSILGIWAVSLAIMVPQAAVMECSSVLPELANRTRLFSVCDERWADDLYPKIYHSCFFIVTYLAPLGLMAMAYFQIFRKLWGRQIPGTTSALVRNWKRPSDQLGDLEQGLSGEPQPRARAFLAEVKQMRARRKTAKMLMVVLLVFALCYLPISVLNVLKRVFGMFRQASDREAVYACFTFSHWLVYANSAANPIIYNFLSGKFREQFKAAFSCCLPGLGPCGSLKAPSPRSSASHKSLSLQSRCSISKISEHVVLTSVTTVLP
OX1R antag-2: antagonists of human orexin 1 receptor (OX1R). Orexin/Hypocretin receptor type 1 (Homo sapiens), O43613. OX1R-expressing cells, FRET antagonist read-out. inhibition, % at 6.6 µM. 330,000 tested, 1.8% active. AID 485270, 2010; in the data active means inhibition mostly above about 38%, no sharp cut-off; inactive means mostly below about 40%;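 further: 0% = agonist challenge alone and 100% = reference antagonist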
An asterisk follows results filed as active; & = joins results of further samples. Only part of the results is shown, and most or all hits are left out here.

OX1R antag-2 | OX1R antag-1 | Structure
14 | -22 | CCOCC(=O)Nc1nc2ccc(OCC)cc2s1
13 | -41 | Cn1c(NC(=O)C(C)(C)Oc2ccc(Cl)cc2)cc(=O)n(C)c1=O
5 | 9 | CCOC(=O)N1CCN(C(=O)CN(c2ccc3c(c2)OCO3)S(C)(=O)=O)CC1
10 | -1 | O=C(c1cc(COc2c(F)cccc2F)on1)N1CCC(c2ccncc2)CC1
13 | -23 | O=C(CN1C(=O)NC2(CCCCCC2)C1=O)c1ccc(F)cc1
13 | -32 | Cc1cccc(-n2c(N)cc(=O)nc2SCC(=O)NC2CCCCC2)c1
18 | -23 | Cc1noc(C)c1COc1cccc(C(=O)Nc2cccnc2)c1
22 | -3 | COC(=O)c1ccc(CNC(=O)C23CC4CC(CC(C4)C2)C3)cc1
13 | -36 | Cc1ccc(NC(=O)CSc2nc3c(c(=O)[nH]2)CCC3)c(C)c1
29 | -5 | CCOC(=O)CN1N=C(/C=C/c2ccc(OC)cc2)CCC1=O
26 | -10 | COc1ccccc1OC(C)C(=O)N1CCc2ccccc21 (stereo not drawn)
37 | -44 | Cc1cccc2sc(NC(=O)[C@H](C)N3C(=O)C4CC=CCC4C3=O)nc12 (stereo partly drawn)
47 | -27 | COc1ccc(Br)cc1S(=O)(=O)NNC(=O)c1c(C)nc2ccccn12
3 | 7 | COc1ccc(-n2c(CNC(=O)c3cc(OC)c(OC)c(OC)c3)n[nH]c2=S)cc1
9 | -13 | CN(C)C(=O)N1CCC(C(=O)NC2CCCCCCC2)CC1
2 | -11 | O=c1[nH]nc(SCCS(=O)(=O)c2ccc(F)cc2)n1-c1ccc2c(c1)OCCO2
31&13 | -22&-11 | COC(=O)Nc1ccc2c(c1)N(C(=O)CCN1CCN3CCCC3C1)c1ccccc1CC2 (stereo not drawn)
4 | -35 | O=S(=O)(CCN1CCN(c2ccccn2)CC1)c1ccc(Cl)cc1Cl
15 | 5 | Cc1ccccc1C(=O)NNC(=O)C1CCN(c2ncccn2)CC1
18 | -23 | CC(C)(C)n1nc2c(c1NC(=O)Cc1cccs1)CSC2
14 | -3 | Cc1ccc(S(=O)(=O)CCC(=O)Nc2cccc(C)c2)cc1
-8 | 2 | Cc1ccccc1CN1CCCNC1=O
5 | -30 | CC1CCc2[nH]c3ccc(C(=O)Nc4ccc(C(=O)N(C)C)cc4)cc3c2C1 (stereo not drawn)
16 | -32 | CCOC(=O)C1(Cc2ccccc2Cl)CCN(S(=O)(=O)N(C)C)CC1
12 | -2 | Cc1ccc(S(=O)(=O)N2CCN(C3CC(=O)N(c4ccc(F)cc4)C3=O)CC2)cc1C (stereo not drawn)
26 | -8 | COc1ccc(CCn2c(N3CCN(Cc4ccccc4)CC3)nc3c2c(=O)[nH]c(=O)n3C)cc1
22 | -11 | O=C(N/N=C/c1ccccn1)c1cc(-c2cccc3ccccc23)n[nH]1
16 | -13 | Cc1ccc2oc(-c3ccc(NC(=O)c4ccc5c(c4)OCO5)cc3)nc2c1
12 | -28 | Cc1ccc(NS(=O)(=O)c2ccc(Br)s2)cc1S(=O)(=O)N1CCOCC1
8 | 15 | Cc1nc(N)sc1-c1nnc(SCC(=O)Nc2nccs2)n1C
6 | 10 | CCOc1cc(/C=C2\SC(=N)N(c3nonc3N)C2=O)ccc1OCC(N)=O
7 | -15 | O=C(COC(=O)CNC(=O)c1ccco1)Nc1ccccc1OC(F)F
26 | -19 | Cc1ccnc(NC(=O)CCC(=O)N(CC(=O)NCCc2ccccc2)c2ccc(F)cc2)c1
51 | 8 | COc1ccc2c(c1)c(=O)oc1cc(OCC(=O)N3CCCC(C)C3)ccc12 (stereo not drawn)
-1 | -22 | COc1ccc(/C=C(/NC(=O)c2cccs2)C(=O)NC(C)(C)C)cc1OC
7 | 6 | O=C(O)CNC(=O)C12CC3CC(CC(Cl)(C3)C1)C2
16 | -4 | O=C(Nc1ccc(F)cc1)C1CCCN(S(=O)(=O)c2ccc(-n3cnnn3)cc2)C1 (stereo not drawn)
16 | -12 | C=CSc1sc(Cl)c(N2CCOCC2)c1[N+](=O)[O-]
11 | -12 | Cc1cccc(/C=N/NC(=O)c2cccc(NC(=O)c3ccccc3)c2)n1
5 | -32 | CC1CCN(Cc2cc(=O)oc3ccc4ccccc4c23)CC1
16 | -20 | CC(C)(C)OC(=O)NCCCCCC(=O)N/N=C/c1coc2ccccc2c1=O
20 | -25 | CCOC(=O)c1sc(-c2ccccc2)cc1NC(=O)CSc1nnnn1C
16 | -43 | CC[C@H](C)[C@@H](NC(=O)O[C@@H]1C(=O)c2cc(Br)ccc2O[C@H]1c1cccc(OC)c1)C(=O)OC
18 | -15 | COc1ccc(C2=NOC(C(=O)NCc3ccco3)C2)cc1 (stereo not drawn)
25 | -30 | Cc1ccccc1NC(=O)/C(C#N)=C\c1ccsc1
16 | -24 | COc1ccc(F)cc1S(=O)(=O)NC1CCCCCC1
22 | -7 | CCC(C(=O)NCCCN1CCN(CCCNC(=O)C(CC)c2ccccc2)CC1)c1ccccc1 (stereo not drawn)
13 | -4 | Cn1c(CO)cnc1SCc1ccc(Cl)cc1
10 | 0 | COc1ccc(Cl)cc1NC(=O)COC(C)=O
19 | -26 | CC(C)Nc1nc(N)c(C(=O)C23CC4CC(CC(C4)C2)C3)s1
15 | -14 | N#Cc1c(N)n(C2CCCCC2)c2nc3ccccc3nc12
17 | -13 | COc1cc(S(=O)(=O)N2CCOCC2)ccc1NC(=O)COC(=O)COc1ccccc1
8 | -7 | CN1CCN(NC(=O)c2cn(-c3ccccc3)nc2-c2ccc(OC(F)F)cc2)CC1
15 | -17 | CC1=C(C(=O)Nc2ccccc2C(F)(F)F)C(c2ccc(C)s2)NC(=S)N1 (stereo not drawn)
-11 | -12 | CCOc1ccc(C(=O)n2cc(C(=O)OC)c3ccccc32)cc1
5 | -4 | Cc1cc(C(=O)NCc2ccco2)cs1
6 | 1 | Cc1ccc(CNS(=O)(=O)c2ccc(C(C)(C)C)cc2)n1C
36 | -2 | COc1ccccc1-c1cc(C(=O)Nc2ccccc2SC)no1
-4 | -13 | CCCn1c(=S)[nH]c2cc(C(=O)N(CCO)Cc3ccccc3)ccc2c1=O
14 | -7 | CCCCCCc1nnc(N)s1

(continued)
OX1R antag-2 | OX1R antag-1 | Structure
5 | -14 | Cc1ccc(C)c(Nc2ncccc2C(=O)NCc2cccs2)c1
-1 | -40 | COC(=O)CCc1c(C)c(C(=O)c2cccc(OC)c2OC)c2ccccn12
21 | -22 | CCOc1ccc(-c2cc(C(=O)NCCCN3CCN(CC)CC3)c3ccccc3n2)cc1
7 | -12 | Cc1cccn2c(=O)c(C=O)c(N3CCN(c4ccccc4)CC3)nc12
11 | -23 | O=C(OCC(=O)N(C1CCCCC1)C1CCCCC1)c1ccncc1
20 | -3 | CCCc1cc(=O)n2[nH]c(C)c(-c3ccc(Cl)cc3)c2n1
5 | 0 | N#Cc1cnc(N)c(Br)c1
6 | -20 | COc1ccc(C2C(C(=O)c3cccs3)=C(O)C(=O)N2c2cccc(C)n2)cc1 (stereo not drawn)
4 | -4 | CC(C)CNC(=S)Nc1ccc(F)cc1
16 | -22 | COc1ccc(/C=C/CN2CCN(Cc3ccc(F)cc3)C(CCO)C2)cc1 (stereo not drawn)
22 | -2 | CCCN(CCC)C(=O)Cn1ccc(=N)c2ccccc21
17 | -18 | Cc1nc2ccc(NC(=O)NCCCO)cc2s1
3 | -33 | O=C(CSc1ncnc2ccccc12)N1CCNC1=O
9 | -16 | COc1cccc(C(=O)Nc2ccc(NC(=O)c3ccco3)cn2)c1
4 | -24 | O=C(CN1C(=O)NC2(CCCC2)C1=O)NCc1ccc(F)cc1
4 | -2 | O=C(Nc1ccc(F)cc1)C1CCN(C(=O)NCc2ccccc2)CC1
12 | -4 | O=c1cc(CO)oc(CN2CCN(CCO)CC2)c1O
0 | -23 | O=C(Nc1ccc(Cl)cc1Cl)c1ccc2c(=O)n3c(nc2c1)CCC3
20 | 4 | CCn1cc(S(=O)(=O)N2CCCC2)cn1
4 | -28 | Cn1c(-c2ccc(Cl)cc2)ccc(C#N)c1=O

Given bar-delimited: entries from further up
SMILES | OX1R antag-2 | OX1R antag-1
CC(C)CNC(=S)Nc1ccc(F)cc1 | 4 | -4
COc1ccc(/C=C/CN2CCN(Cc3ccc(F)cc3)C(CCO)C2)cc1 (stereo not drawn) | 16 | -22
CCCN(CCC)C(=O)Cn1ccc(=N)c2ccccc21 | 22 | -2
Cc1nc2ccc(NC(=O)NCCCO)cc2s1 | 17 | -18

Other structures follow:
OX1R antag-2 | OX1R antag-1 | Structure
42 | -11 | COc1cccc(C(=O)Nc2nnc(S(=O)(=O)N(C)c3ccccc3)s2)c1
7 | -34 | CN(C)c1ccc(CN(C(=O)c2ccccc2Br)C2CCS(=O)(=O)C2)cc1 (stereo not drawn)
8 | -19 | O=c1n(Cc2ccccc2Cl)nc2n1-c1ccccc1SC2
-2 | -12 | O=C(NCCCN1CCCC1)c1ccc(CS(=O)(=O)c2ccc(Cl)cc2)o1
-1 | -15 | CCCn1c(N)cc(=O)n(C)c1=O
15 | -25 | CCC(C)Nc1nc(N)c([N+](=O)[O-])c(Nc2cc(OC)ccc2OC)n1 (stereo not drawn)
15 | -6 | c1ccc(CCC2=NCCn3cccc32)cc1
15 | -14 | CCNS(=O)(=O)c1ccc(CCC(=O)N2CCN(Cc3ccccc3)CC2)cc1
-8 | 1 | O=C(Cc1ccc(Cl)cc1)Nc1cccc(S(=O)(=O)N2CCCCC2)c1
14 | -38 | CCCN(CC1CC1)C(=O)COc1ccccc1C(=O)NCc1ccccc1
10 | -30 | CC(C)CCNC(=O)C(c1cccnc1)N(Cc1ccccc1)C(=O)Cn1nnc2ccccc21 (stereo not drawn)
35 | -14 | Cc1ccc(Cl)cc1-c1ccc(C=Nc2ccc(N3CCOCC3)cc2)o1
3 | 1 | NC(=O)NC(=O)COC(=O)c1ccc(OC(F)(F)F)cc1
4 | -11 | Cc1ccc(S(=O)(=O)N2CCOCC2)cc1C(=O)OCC(=O)c1ccc(Br)cc1
12 | -16 | COc1ccc2c(c1)C(c1ccccc1)NC(=O)C2 (stereo not drawn)
14 | -18 | O=C(CN1C(=O)S/C(=C\c2ccccc2Cl)C1=O)NC1C=CS(=O)(=O)C1 (stereo not drawn)
13 | -15 | CCC(C(=O)OCC(=O)Nc1ccc(Cl)c(S(=O)(=O)N(C)C)c1)c1ccccc1 (stereo not drawn)
22 | -2 | CCn1c(SCc2ccc(C(=O)Nc3nccs3)cc2)nnc1-c1ccc(NC(C)=O)cc1
9 | -18 | O=C(CSc1nnc(-c2ccncc2)n1Cc1ccco1)N1c2ccccc2Sc2ccc(Cl)cc21
8 | -6 | CCN(CC)S(=O)(=O)c1ccc(C)c(C)c1
35 | -15 | COc1ccc(/C=N/NC(=S)Nc2ccccc2)cc1
6 | -1 | CC(C)(C)NC(=O)CSc1nc2ccccc2c(=O)[nH]1
11 | -27 | O=C(CSc1nncc2ccccc12)Nc1ccc(F)cc1
2 | -14 | COc1ccc(-c2nc(NCCCN(C)C)c3ccccc3n2)cc1
21 | -20 | CNC(=O)NC(=O)C(c1ccccc1)N(C)CC1COc2ccccc2O1 (stereo not drawn)
0 | -10 | N#CCCN(C(=O)CSc1nc2ccccc2c(=O)[nH]1)c1ccc(F)cc1
2 | -14 | Oc1ccc(Nc2ccnc3cc(Cl)ccc23)cc1
48 | -40 | CCNC(=S)NNC(=O)CCc1nc2cc(Cl)ccc2n(Cc2ccccc2)c1=O
11 | -9 | CCCCC(=O)N1CCCC(C(=O)OCC)C1 (stereo not drawn)
22 | 1 | CC(C)NC(=O)CCCc1cn(C)c2ccccc12
7 | -25 | CCN(CC)c1ccc(NC(=O)CN(C)Cc2cccs2)cc1
7 | -7 | N=C(N)Cc1ccccc1Sc1ccccc1
12 | -25 | CCOC(=O)c1ccccc1NC(=O)c1ccc(Cl)c(S(=O)(=O)N2CCOCC2)c1
37 | 3 | CC(=O)Nc1cccc(NC(=O)CSc2nc(C3CC3)nc3ccccc23)c1
13 | -14 | O=C(Nc1ccc(Cl)cc1)NC1CCS(=O)(=O)C1 (stereo not drawn)
12 | -3 | COc1ccc(/C(O)=C2/C(=O)C(=O)N(CCN(C)C)C2c2cccnc2)cc1C (stereo not drawn)
6 | -34 | CCCCCOC(=O)C1=C(C)NC(=O)NC1c1ccc([N+](=O)[O-])cc1 (stereo not drawn)
8 | -13 | O=C(Nc1cc(S(=O)(=O)N2CCCC2)ccc1OCC(F)(F)F)c1ccccc1F
6 | -11 | CC(CNC(=O)c1cncc(O)c1)NC(=O)c1cncc(O)c1 (stereo not drawn)
16 | -13 | CCN1CCN(c2ccc(NC(=O)Cc3ccccc3)cc2)CC1
35 | -36 | OCCCCC#Cc1c(-c2ccsc2)sc2ccccc12

Ordered by count of non-hydrogen atoms (smallest number first): 6 of the compounds above
OX1R antag-2 | OX1R antag-1 | Structure
11 | -9 | CCCCC(=O)N1CCCC(C(=O)OCC)C1 (stereo not drawn)
35 | -15 | COc1ccc(/C=N/NC(=S)Nc2ccccc2)cc1
35 | -36 | OCCCCC#Cc1c(-c2ccsc2)sc2ccccc12
7 | -25 | CCN(CC)c1ccc(NC(=O)CN(C)Cc2cccs2)cc1
2 | -14 | COc1ccc(-c2nc(NCCCN(C)C)c3ccccc3n2)cc1
0 | -10 | N#CCCN(C(=O)CSc1nc2ccccc2c(=O)[nH]1)c1ccc(F)cc1
